Screening results as filed in PubChem BioAssay.
UCH37 inh = inhibitors of human deubiquitinating enzyme UCH37; Q9Y5K5; purified proteasome/UCH37, Ub-AMC cleavage fluorescence; inhibition, % (test concentration not listed); 0.33% of 330,000 active; AID 588478;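 active = mean of two replicates above 20%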;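 also: 0% = compound-free wells with enzyme and 100% = wells lacking proteasome; stock transfer was 100 nL into about 20 µL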
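Material: human UCH37 enzyme supplied as purified proteasome complex. Measure: % inhibition of Ub-AMC cleavage fluorescence. Medium: pH 7.4 Tris-HCl (50 mM) with ovalbumin, ATP-MgCl2, DTT. Times: 30 min preincubation with enzyme, 25 min cleavage at room temperature. Detection: AMC fluorescence intensity at 355/460 nm.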
Bfl-1 A1 inh = inhibitors of the anti-apoptotic protein A1, read as caspase activation | MEF A1-2A-BIM cells, Caspase-Glo 3/7 luminescence, 3 h; percent of clofoctol response, vehicle zero | caspase activation, % (concentration not given with the values) | 0.066% of 330,000 active;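 active = over half of replicate activation scores above 10%, or exactly half above 10 with the replicate mean above 10; inconclusive = replicate mean below 10 yet half the replicates above 10; inactive = over half of replicates below 10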;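 also: wells of about 30 µL received 50 nL stock; many hits fall short of the cut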
Beta2AR agonist = activates human beta-2 adrenergic receptor causing internalization. response, % (no concentration beside the values). 0.43% of 340,000 active. P07550. Am2.2-beta2AR cells, FAP receptor internalization, flow cytometry; reference of the scale not given here;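 active = response above a set limit, near 3 SD of response in nonfluorescent compounds, cut at about 42% in these data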;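 also: stock transfer was 100 nL into about 11 µL; a reference agonist was the positive control; negative values mostly stem from fluorescent compounds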
LANA-H2A inh = blocks KSHV LANA binding to histone H2A/H2B. Q9QR71. cell-free LANA-H2A/H2B peptide, fluorescence polarization. inhibition, % (test concentration not listed). 0.6% of 320,000 active; in the data active = inhibition mostly above about 10%, no sharp cut-off; inactive = mostly below about 6.7%;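 also: stock transfer was 7.5 nL into about 10 µL; 0% = median of vehicle wells and 100% = median of positive control wells; one replicate is shown; the record names a cut of 25% in any replicate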
Target sequence (Q9QR71 whole entry, looked up): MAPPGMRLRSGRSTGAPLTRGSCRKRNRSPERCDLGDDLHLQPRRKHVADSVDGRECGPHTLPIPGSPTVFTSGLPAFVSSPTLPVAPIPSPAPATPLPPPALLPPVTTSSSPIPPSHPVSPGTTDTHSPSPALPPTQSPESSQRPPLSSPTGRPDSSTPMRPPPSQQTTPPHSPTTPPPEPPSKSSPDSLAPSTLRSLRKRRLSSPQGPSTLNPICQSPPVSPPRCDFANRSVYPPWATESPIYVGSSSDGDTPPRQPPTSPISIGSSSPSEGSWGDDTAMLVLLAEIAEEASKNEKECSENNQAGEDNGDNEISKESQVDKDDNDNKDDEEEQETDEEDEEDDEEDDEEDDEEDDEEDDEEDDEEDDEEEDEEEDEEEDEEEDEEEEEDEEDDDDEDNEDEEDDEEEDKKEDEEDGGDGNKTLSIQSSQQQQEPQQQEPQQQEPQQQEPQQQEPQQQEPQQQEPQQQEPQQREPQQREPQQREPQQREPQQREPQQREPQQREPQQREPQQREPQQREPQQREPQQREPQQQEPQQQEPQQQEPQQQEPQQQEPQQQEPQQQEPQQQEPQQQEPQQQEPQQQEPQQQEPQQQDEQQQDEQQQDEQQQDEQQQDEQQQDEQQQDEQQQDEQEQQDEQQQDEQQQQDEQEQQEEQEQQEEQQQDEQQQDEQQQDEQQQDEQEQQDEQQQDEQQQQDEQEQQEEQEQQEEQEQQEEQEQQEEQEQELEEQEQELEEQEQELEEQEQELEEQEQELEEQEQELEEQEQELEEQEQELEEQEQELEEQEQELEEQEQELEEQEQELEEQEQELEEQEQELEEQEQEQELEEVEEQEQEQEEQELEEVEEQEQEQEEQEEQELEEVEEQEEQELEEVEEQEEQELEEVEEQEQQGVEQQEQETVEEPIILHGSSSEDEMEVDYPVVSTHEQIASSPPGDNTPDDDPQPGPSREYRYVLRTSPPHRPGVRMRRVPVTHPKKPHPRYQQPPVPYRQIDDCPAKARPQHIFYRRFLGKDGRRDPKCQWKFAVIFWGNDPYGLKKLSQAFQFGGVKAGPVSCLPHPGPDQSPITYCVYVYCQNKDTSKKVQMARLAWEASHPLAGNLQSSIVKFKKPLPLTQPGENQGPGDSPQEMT
RanGTP-Impb inh = inhibitors of RanGTP-importin-beta interaction, primary screen, biochemical, FRET, CFP-Ran, YFP-importin-beta, homogeneous. inhibition, % (no concentration beside the values). cell-free CFP-Ran/YFP-importin-beta FRET ratio. 1.1% of 300,000 active;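 active = most replicates above 15%; inconclusive = exactly half above 15%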;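 also: 0% = DMSO wells and 100% = Ran loaded with GDP instead of GTP; wells of about 40 µL received 100 nL stock; the first replicate is given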
Beta cell apopt = blocks beta cell apoptosis; INS-1E cytokine-induced death, ATP luminescence, 48 h; percent of positive-control rescue, neutral wells zero; protection from apoptosis, % (test concentration not listed); 0.8% of 300,000 active; AID 435005;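 active = all replicates at 75% or more, or half of them and the mean; inconclusive = half reach 75% but not the mean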;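 also: 0% = cytokine-treated negative control wells and 100% = positive control rescue; higher means more ATP so stronger rescue from cytokine killing; wells of about 40 µL received 100 nL stock; the first replicate is given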
T cruzi inh = blocks replication of Trypanosoma cruzi; 1.4% of 300,000 active; inhibition, % (test concentration not listed); T. cruzi beta-gal in NIH3T3, luminescence, 90 h;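 active = mean inhibition across valid replicates above about 55%, limit read from the data; inconclusive = mean below that limit but half or more replicates reach it; inactive = mean below it, under half of replicates reach it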;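 also: signal also drops with host cell toxicity which is not excluded here; 0% = plate median of DMSO wells and 100% = zero luminescence signal; higher percent means less beta-gal luminescence so fewer parasites; stock transfer was 50 nL into about 50 µL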
Calb FLC = affects C. albicans growth with fluconazole; C. albicans CaCi-2 (fluconazole-resistant clinical isolate) + fluconazole, Alamar Blue growth, 48 h; growth inhibition, % (concentration not given with the values); 0.57% of 300,000 active;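 active = most replicates above 75%; inconclusive = exactly half above 75%; inactive = most below 75%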;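 also: all wells also contain fluconazole at 8 µg/ml as a sub-toxic cotreatment; 0% = median of DMSO wells and 100% = median of geldanamycin control wells; wells of about 8 µL received 7.5 nL stock; the first replicate is given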
* hit, by the source's call; ? = inconclusive; / = no result given; + = active, no number.

Each structure is followed by: UCH37 inh	Bfl-1 A1 inh	Beta2AR agonist	LANA-H2A inh	RanGTP-Impb inh	Beta cell apopt	T cruzi inh	Calb FLC
> COc1ccc(S(=O)(=O)N2CCOC2CNC(=O)C(=O)NCCc2ccc(S(N)(=O)=O)cc2)cc1 (stereo unspecified)
 : 3.0	0.1	-8.1	5.5	2.9	-2.2	-16.9	-5.5
> CC1(c2ccc3noc(-c4cccc(F)c4)c3c2)OCCO1
 : 4.2	-0.2	-3.1	-0.7	3.1	5.0	-13.3	1.2
> Cc1cccc(N(CC(=O)NC2CCCCC2)C(=O)CCC(=O)Nc2nccs2)c1
 : 3.5	0.8	-9.4	2.9	?	-0.1	-6.5	-1.9
> COc1ccc(/C=N\NC(=O)CNC(=O)C2COc3ccccc3O2)cc1[N+](=O)[O-] (stereo unspecified)
 : /	-0.6	1.9	4.6	?	0.4	13.6	1.0
> O=C(NCc1ccc2c(c1)OCO2)c1ccc2c(=O)n(C3CCCC3)c(=O)[nH]c2c1
 : -7.2	0.4	14.5	2.1	-4.0	12.8	15.5	-13.6
> Fc1cccc(/C=N/n2c(C3CCCCC3)n[nH]c2=S)c1
 : /	2.0	1.4	4.5	-0.1	-1.5	8.0	-2.5
> Cn1cnc([N+](=O)[O-])c1Sc1ccc(C(C)(C)C)cc1
 : 7.7	-0.7	-89.7	-6.6	1.3	-0.5	26.7	1.3
> COC(=O)c1cc(OC(=O)c2ccc(=O)[nH]c2)cc(C(=O)OC)c1
 : -0.4	-0.5	8.2	-0.2	-0.9	-2.5	-9.5	-10.0
> N/C(=N\OC(=O)c1ccccc1Cl)c1ccccc1
 : 2.9	-0.3	1.9	-10.4	-1.4	-2.3	0.8	-3.4
> CC(=O)C1=C(C)N(Cc2ccccc2)C(=O)N[C@H]1c1cccs1
 : 0.6	0.2	5.2	-0.7	-1.8	-4.3	-11.4	1.4
> O=C(C1CC(=O)N(c2ccc3c(c2)OCCO3)C1)N1CCN(Cc2ccccc2)CC1 (stereo unspecified)
 : 0.7	-0.4	-9.6	-4.9	/	0.2	/	/
> COCCCn1c(=O)/c(=C\c2cccc(OC)c2OC)s/c1=C(/C#N)C(=O)Nc1ccc(C(=O)O)cc1
 : /	-0.3	15.4	5.6	2.5	-2.2	10.3	21.0
> CCN(CC)CCOC(=O)c1ccc(N/C=C(/C#N)c2nc(-c3ccc(OC)cc3)cs2)cc1
 : 6.7	0.1	30.5	-14.5	1.8	9.5	?	6.0
> O=C(NC1CCOc2ccccc21)c1ccc(=O)[nH]c1 (stereo unspecified)
 : 1.3	-1.4	7.8	-2.2	0.8	/	-3.8	3.8
> Cn1nc([N+](=O)[O-])nc1Oc1ccccc1C(=O)N1CCOCC1
 : 1.8	0.2	1.1	+	3.7	-4.0	93.4*	-5.4
> CCOc1ccc(CCNC(=O)CCc2nnc3ccc(N4CCOCC4)nn23)cc1OCC
 : 8.8	0.7	0.2	0.1	1.1	-4.0	-10.1	2.6
> Cc1ccccc1NC(=O)Cc1nc(-c2c[nH]c(C(=O)N3CCCC3)c2)cs1
 : 2.5	-0.4	2.6	-4.4	/	10.0	/	/
> COc1cc2c(cc1OC)CC(=O)N(C)CC2
 : -0.7	-0.1	16.4	-0.2	-0.5	-5.2	-12.2	3.5
> CCCc1cn(S(=O)(=O)c2ccc(OC)cc2OC)nc1N
 : -0.2	-0.5	-10.5	0.3	-4.6	1.3	-11.2	1.2
> COc1ccccc1CC(=O)Nc1ccc2nc(C)sc2c1
 : -0.1	-0.4	-14.8	5.0	-1.4	-1.2	-6.7	-1.4
> O=C(CN1C(=O)NC2NC(=O)NC21)N/N=C/c1ccc(F)cc1 (stereo unspecified)
 : /	-0.1	4.2	-1.2	3.2	-4.0	-8.6	-3.9
> CCc1c(C(=O)NC(C)C2CCCO2)csc1C (stereo unspecified)
 : -1.8	0.6	-1.1	-0.5	5.1	-5.2	0.0	-7.4
> COc1ccc(CNC(=O)CN(Cc2ccccc2)C(=O)c2csnn2)cc1
 : 1.5	0.9	-3.7	-5.5	1.9	-1.4	3.0	42.3
> COc1ccc(-c2nnn(CC(=O)N(Cc3ccco3)C(C(=O)NCC3CCCO3)c3ccco3)n2)cc1 (stereo unspecified)
 : /	0.0	4.9	2.2	2.9	-8.4	8.2	11.9
> COCCNC(=O)CN(Cc1ccco1)C(=O)CCC(=O)Nc1nccs1
 : -0.1	-0.2	-5.1	-2.1	2.0	-0.6	0.1	?
> COc1cccc(C2=CC(c3ccc(C)cc3)n3ncnc3N2)c1 (stereo unspecified)
 : /	0.2	/	5.5	-5.8	0.9	1.2	55.9
> CN(C(=S)NC(=O)c1ccccc1Br)C1CCCCC1
 : 6.8	0.0	-2.5	-0.7	3.4	-0.4	-21.0	23.8
> COCC(C)NC(=O)CSc1ncnc2sc(-c3ccccc3)cc12 (stereo unspecified)
 : 0.0	0.7	-6.6	-7.5	0.8	-2.3	-9.0	-4.2
> COCCNC(=O)CN1CCN(C(c2ccccc2)c2ccccc2)CC1
 : 1.6	0.0	1.4	-4.0	3.5	-2.1	13.7	-9.2
> CCOc1ccc(CNc2ccc(N3CCN(Cc4ccccc4)CC3)cc2)cc1
 : 5.1	-0.1	10.6	-1.3	0.7	15.7	25.3	-2.5
> COc1cccc(NC(=O)c2cc(-c3ccncc3)nc3c(C)cc(C)cc23)c1
 : -3.9	0.8	-6.9	-2.9	0.8	6.3	28.8	-2.0
> CCN(CC)CCCNC(=O)Cn1cnc2sc(C)c(S(=O)(=O)N3CCC(C)CC3)c2c1=O
 : 0.7	0.0	17.7	-4.2	2.8	-8.4	-15.5	-1.5
> COc1cc(NC(=O)C2=C(N3CCOCC3)/C(=C\c3ccc(Cl)cc3Cl)CC2)cc(OC)c1OC
 : 3.1	-0.4	5.9	-1.1	-2.8	9.8	28.6	-3.2
> Cc1c(Cl)cccc1N1C(=O)CC(NNC(=O)c2cccs2)C1=O (stereo unspecified)
 : 2.5	-0.4	3.3	-1.1	3.1	-16.5	-14.1	0.0
> CC(=O)NCc1cc(-c2ccc(Cl)cc2)no1
 : 1.2	-0.1	8.1	0.5	0.4	-2.6	-7.5	-12.4
> CCOC(=O)c1c(S(=O)(=O)N2CCN(c3ccc(F)cc3)CC2)c(C)n(C)c1C
 : 3.8	0.4	-7.2	-1.5	2.7	-7.9	9.2	-3.7
> CCCCCC(=O)Nc1cccc(S(=O)(=O)NC2=NCCCCC2)c1
 : 2.4	-1.5	2.5	2.3	/	-2.3	/	/
> CSc1cccc(Nc2ccc(S(=O)(=O)N3CCOCC3)cc2[N+](=O)[O-])c1
 : 4.0	0.7	2.4	-1.0	/	19.7	/	/
> COc1ccc2c(C)c(CCC(=O)NC3CC3)c(=O)oc2c1
 : -304.5	-0.4	-9.3	-3.8	-1.9	-5.4	-5.0	-1.7
> Cn1c2c(c(=O)n(C)c1=O)NC1(N2)C(=O)Nc2ccccc21 (stereo unspecified)
 : -34.0	-0.6	-9.1	-4.6	36.8*	0.1	0.2	-7.5
> CCC(C)CCN1C(Nc2ccccc2)=NC[C@@H]1CC(C)C (stereo partly specified)
 : 1.4	-0.2	2.2	2.5	0.1	8.4	2.8	-34.3
> O=C1COc2ccc(S(=O)(=O)NCCc3ccc(Cl)cc3)cc2N1
 : 4.5	0.2	-3.3	1.3	3.6	3.1	12.0	1.6
> O=c1[nH]cc(COCC(F)CCl)c(=O)[nH]1 (stereo unspecified)
 : 2.9	-0.2	-13.2	0.6	7.5	-0.7	-18.4	-4.8
> Cc1ccc(S(=O)(=O)Nc2cc(C)c(O)c(S(=O)(=O)c3ccc(C)cc3)c2)cc1
 : 3.4	0.5	-3.1	2.5	0.0	2.7	6.0	11.9
> O=C(CC1C(=O)NCCN1C(=O)Nc1ccc(F)cc1F)Nc1ccc(F)cc1 (stereo unspecified)
 : 4.3	0.0	-6.2	-0.8	4.6	4.6	-4.0	9.3
> COc1ccc(/C=C/C(=O)N2CCNC(=O)C2)c(OC)c1
 : 2.9	-0.5	-3.4	-3.6	-1.2	-1.1	-5.9	-0.2
> C=CCN(C(=O)c1csnn1)C(C(=O)NC1CCCC1)c1cccs1 (stereo unspecified)
 : -0.7	0.1	1.1	-1.2	5.1	1.2	-0.6	-10.6
> Cc1ccc(N=C2C(=O)Nc3c(C)cccc32)cc1
 : -0.1	0.2	3.1	-3.4	4.1	-4.3	-15.5	8.7
> O=C(CSc1ccccn1)Nc1ccc2[nH]c(=O)[nH]c2c1
 : 1.9	0.3	5.8	5.8	/	-3.1	/	/
> Cc1ccc(S(=O)(=O)NC(C)C(=O)Nc2ccc3c(c2)OCO3)cc1 (stereo unspecified)
 : 1.4	0.2	-6.6	0.3	3.6	1.7	-12.3	8.2
> Cc1cccc(NC(=S)NC2CCCCCC2)c1C
 : 2.7	0.3	-12.0	-3.4	-4.7	25.5	-10.5	-20.8
> Cn1c(=O)n(C)c2cc([N+](=O)[O-])c(N3CCN(CCO)CC3)cc21
 : 11.2	0.1	-2.6	-5.9	1.9	/	-1.9	-12.1
> CCCOc1ccc(N2CC(C(=O)Nc3ccccc3C(=O)NCc3ccco3)CC2=O)cc1 (stereo unspecified)
 : -0.9	?	-3.8	6.2	4.8	5.8	15.0	5.4
> CC1=C(C(=O)NC2CC(C)(C)Cc3c2cnn3-c2ccc(C)cc2)OCCO1 (stereo unspecified)
 : 3.8	0.3	-0.9	-5.3	-1.8	-6.5	-2.6	-22.0
> O=C(O)C1SCCN1S(=O)(=O)c1ccc2ccccc2c1 (stereo unspecified)
 : 3.2	0.2	-4.2	1.9	-0.4	-2.2	3.6	-13.0
> C#CCOCCOCCOCCNc1nc(OC)nc(N2CCN(C(=O)[C@H](CCCCN)n3cc(C(N)CO)nn3)CC2)n1 (stereo partly specified)
 : 2.5	/	/	/	3.1	/	-4.7	3.5
